# TRPV1 PAM – enhances activation of the human vanilloid receptor TRPV1; TRPV1-expressing cells, Fluo-8 calcium influx, capsaicin EC20 potentiation; host cell line not named in the record; control for the full effect not named in the record; 320,000 compounds, 0.02% hits; potentiation, % at 8.33 µM; active means potentiation above 80%; inconclusive means 30% to 80%; inactive means below 30%; note: 0% is about no effect
# Target sequence (Q8NER1 whole entry, looked up): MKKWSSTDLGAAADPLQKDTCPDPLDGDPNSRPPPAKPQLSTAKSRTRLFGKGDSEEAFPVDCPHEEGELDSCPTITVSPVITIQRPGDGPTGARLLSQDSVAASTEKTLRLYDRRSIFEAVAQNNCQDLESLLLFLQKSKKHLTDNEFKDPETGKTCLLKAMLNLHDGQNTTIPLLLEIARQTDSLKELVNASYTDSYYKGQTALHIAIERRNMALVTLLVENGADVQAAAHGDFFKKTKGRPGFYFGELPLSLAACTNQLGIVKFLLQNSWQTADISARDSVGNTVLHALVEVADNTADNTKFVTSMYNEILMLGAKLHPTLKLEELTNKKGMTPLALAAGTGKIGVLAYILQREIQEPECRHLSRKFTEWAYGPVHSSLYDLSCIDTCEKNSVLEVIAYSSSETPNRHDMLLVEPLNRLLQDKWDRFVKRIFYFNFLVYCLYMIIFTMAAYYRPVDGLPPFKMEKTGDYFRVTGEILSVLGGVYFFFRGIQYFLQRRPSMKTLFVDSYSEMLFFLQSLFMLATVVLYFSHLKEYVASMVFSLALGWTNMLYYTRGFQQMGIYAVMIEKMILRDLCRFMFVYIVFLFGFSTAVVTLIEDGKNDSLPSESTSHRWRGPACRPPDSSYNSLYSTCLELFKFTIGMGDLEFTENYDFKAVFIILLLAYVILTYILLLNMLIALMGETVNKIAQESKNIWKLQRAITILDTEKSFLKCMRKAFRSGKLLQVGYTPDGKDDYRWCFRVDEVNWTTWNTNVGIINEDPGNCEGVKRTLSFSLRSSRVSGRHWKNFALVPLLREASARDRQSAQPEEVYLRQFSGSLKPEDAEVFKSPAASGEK
#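 TRPV1-expressing cells were cultured overnight at 35.5C and loaded with Fluo-8 calcium dye for 40 to 90 min at room temperature. After a 10 s baseline, compound was added and calcium influx was read kinetically for 3 min (ex 480/em 520 nm).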
# ClpP mod – qHTS Assay for Activators of ClpP | ATP-dependent Clp protease proteolytic subunit (Bacillus subtilis (strain 168)), P80244 | purified B. subtilis ClpP, FRET peptide cleavage, 20 min | Potency, µM (highest dose often 57.5 µM), inactives show at the top dose activity change, negative = active | 340,000 compounds, 1.9% hits; active = well fitted falling curve with a large enough effect; inconclusive = small, poorly fitted or top-dose-only effect; inactive = no such curve, though single readings can be large or run the other way; note: potency is the fitted concentration of half-maximal effect; the source files actives as falling curves though it sought activators and does not explain the sign; nearly all actives have a fitted effect of over 65% in size; many hits overshoot -100%
# Target sequence (P80244 whole entry, looked up): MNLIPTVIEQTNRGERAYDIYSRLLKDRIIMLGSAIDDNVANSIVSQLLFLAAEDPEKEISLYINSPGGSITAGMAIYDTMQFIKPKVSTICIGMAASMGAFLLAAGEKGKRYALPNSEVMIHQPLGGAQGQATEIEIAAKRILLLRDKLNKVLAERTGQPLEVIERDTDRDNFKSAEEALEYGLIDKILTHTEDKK
#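 Buffer: 100 mM Tris/HCl pH8, 100 mM KCl, 0.05% low protease BSA, 2.5% glycerol, 0.01% Tween-20. ClpP 10 microg/mL final; 20 min RT; delta FRET normalized to ADEP and DMSO controls.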
# Sfp inh – blocks B. subtilis Sfp PPTase activity. Q9F4F7. Biochemical Sfp PPTase activity, qHTS. Potency, µM, for the others: max response, negative = inhibition, most hits filed as inhibitors. 310,000 compounds, 3.5% hits. AID 1490; active = well fitted inhibition curve with a large enough effect; inconclusive = small, poorly fitted or top-dose-only effect, or another doubt; inactive = no such curve, though single readings can be large or run the other way;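 note: the enzyme is Sfp with the accession as filed and its product quenches rhodamine fluorescence; potency is the fitted concentration of half-maximal effect; 0% = enzyme reaction without inhibitor and -100% = no enzyme wells; top concentration of the series not given in the record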
#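 Buffer: 50 mM Hepes-Na pH 7.6, 10 mM MgCl2, 0.01% Nonidet P-40, 0.01% BSA. Enzyme 15 nM, pre-exposed to compound 15 min; substrates then added and fluorescence change tracked over 30 min.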
# Menin MLL FP FL – displaces fluorescein MLL peptide from human menin; Fluorescence polarization, fluorescein-MLL peptide displacement from menin; FP activity change, % at 61.4 µM; 290,000 tested, under 10 active; inconclusive = falling polarisation curve, or a change in total fluorescence; inactive = total fluorescence flat and polarisation flat or rising; no compound was filed as active; the % refers to the polarisation; negative = inhibition;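 note: % of control where 0% means no effect; inhibitors lower the polarisation; unlabelled MLL peptide was the positive control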
# gsp antagonist – antagonizes gsp, the McCune-Albright syndrome mutation; AID 624288; gsp-mutant cells, cAMP HTRF, 30 min; control for the full effect not named in the record; 340,000 compounds, 0.4% hits; Potency, µM (top dose mostly 76.9 µM), for the others: top-dose activity change, negative = inhibition, usual class: inhibitors; active = falling curve of any shape with a large fitted effect; inconclusive = falling curve, mostly with a smaller effect; inactive = flat or rising curve; cell line not stated here;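 note: intracellular cAMP measured with PDE inhibitor Ro 20-1724 present during compound exposure; potency is the fitted concentration of half-maximal effect; % is set by controls: 0 for no effect and ±100 for the full control effect; nearly all actives have a fitted effect of over 65% in size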
#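 Cells, 2000/well, grown 16–24 h in DMEM 10% FBS with 0.5 mg/ml G418, then compounds plus […] (300 uM addition stock), 30 min at 37C. cAMP read by HTRF (cAMP-d2 and anti-cAMP antibody-K in lysis buffer) after 30 min RT.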
# CtBP-E1A blk – inhibitors of CtBP/E1A interaction; 340,000 compounds, 0.49% hits; activity change, % (test concentration not listed); AID 651724; AlphaScreen GST-E1A/His-CtBP binding, 1536-well; stronger effect = lower value; control for the full effect not named in the record; in the data active means activity change below about -65%; inconclusive means about -30% to -65%; inactive means above about -30%; note: % is set by controls: 0 for no effect and ±100 for the full control effect
#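 In 5 uL wells, 23 nL compound meets equimolar GST-E1A and His-CtBP (5X stock 125 nM each) for 2 h, 37 °C. Beads (5X, 50 ug/mL) then 1 h, 37 °C, dark.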
# gsp agonist – agonists of gsp mutant (McCune-Albright syndrome); 340,000 compounds, 0.13% hits; gsp mutant cells, cAMP HTRF, 30 min; control for the full effect not named in the record; Potency, µM (doses to about 76.9 µM), for the others: at the highest dose activation (cAMP increase), usual class: activators; active = well fitted activation curve with a large enough effect; inconclusive = small, poorly fitted or top-dose-only effect, or another doubt; inactive = no such curve, though single readings can be large or run the other way; cell line not stated here;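 note: phosphodiesterase inhibitor Ro 20-1724 added with compounds to block cAMP breakdown; potency is the fitted concentration of half-maximal effect; nearly all actives have a fitted effect of over 60% in size; about a fifth of the inactives were tested at one dose only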
#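 Cells stably selected in G418 were plated at 2000/well, grown 16-24 hr, then given compounds in DMSO with the PDE inhibitor […] (300 uM solution added) for 30 min at 37C; cAMP was read by HTRF.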
# Active calls of the source: *; u = inconclusive; x = not tested or not shown; & = joins results of further samples; [ ] = dose if it differs, or a comment.
SMILES,TRPV1 PAM,ClpP mod,Sfp inh,Menin MLL FP FL,gsp antagonist,CtBP-E1A blk,gsp agonist
O=C(O)CC(NC(=O)Cc1ccc(Cl)cc1)c1ccco1 (configuration not stated),8.2,x,10.0%,-2.6,4.6%,0.0,1.1%
CCOC(=O)c1ccc(S(=O)(=O)N2CCN(C(=O)c3nn(C)c(=O)c4ccccc34)CC2)cc1,9.1,-2.8%,6.7%,0.6,-10.5%,x,-7.0%
Cc1cc(-c2ccc(S(=O)(=O)N3CCN(c4ccc(F)cc4)CC3)s2)on1,-2.5,3.6%,16.8%,x,-15.3%,2.5,11.6%
Cc1ccc(S(=O)(=O)N2C[C@H]3N(C(=O)OC(C)C)N(C(=O)OC(C)C)C[C@H](OC(=O)Nc4cccs4)[C@@]3(O)C2)cc1,x,-0.8%,x,x,x,-6.1,-13.9%
COc1ccccc1-n1nnnc1SCC(=O)Nc1ccccc1,-2.1,x,4.5%,7.1,10.9%,4.1,-27.3%
COc1ccc(CCn2c(Br)nc3c2c(=O)[nH]c(=O)n3C)cc1,u,-2.8%,4.8%,0.1,5.1%,-4.6,-36.5%
Cc1ccc(CNC(=O)c2nnc(Cc3ccc(Cl)cc3)o2)cc1,4.2,-1.6%&-0.3%,26.2%,0.2,11.4%,2.5,-2.8%
Cc1cc(=O)oc2cc(OCC(=O)OCC(=O)N3CCc4ccccc43)ccc12,-7.7,107.4%,4.2%,-2.2,-9.9%,-2.1,-7.7%
COc1cccc(N2CC(NC(=O)C(=O)c3c(C)[nH]c4ccccc34)CC2=O)c1 (configuration not stated),1.3,1.1%,x,x,-4.3%,1.6,12.3%
Cc1ccc(C(C)NC(=O)C23CC4CC(CC(C4)C2)C3)cc1 (configuration not stated),-15.0,x,21.9%,3.3,-43.6%,-22.2,-26.5%[15.4 µM]
O=C(Cn1c(=O)c(=O)n(Cc2ccccc2)c2ccc(Cl)cc21)Nc1cc(F)ccc1F,4.6,x,6.7%,5.3,x,x,x
O=C1CC(c2ccccc2F)c2c(c3ccccc3[nH]c2=O)O1 (configuration not stated),2.9,x,-14.9%,-4.0,0.5%,3.2,29.0%
Cc1ccc(OCCSc2nnc(-c3cccs3)n2C)cc1,-5.9,-1.3%,16.4%,-0.6,-16.3%,1.8,-17.9%
COc1ccc(OCC(=O)N/N=C/c2cccn2-c2cccc(C(=O)O)c2)cc1,5.5,x,x,x,-0.9%,-7.9,3.8%[15.4 µM]
O=C(c1cc2cc3ccc(Cl)cc3nc2o1)N1CCN(Cc2ccc3c(c2)OCO3)CC1,x,x,x,x,7.7%,0.6,11.4%[15.4 µM]
O=C(CSc1nnc(-c2ccncc2)n1-c1ccccc1Cl)Nc1ccc(C(=O)O)cc1,-16.2,x,-6.0%,1.5,10.5%,-2.9,u
CC1(C)C(=O)Nc2ccccc2N1C(=O)CN1C(=O)C(=O)N(C2CCCC2)C1=O,-4.2,x,0.9%,3.1,3.9%,6.0,0.0%
CCSc1ncc(Cl)c(C(=O)Nc2ccc(S(N)(=O)=O)cc2)n1,-18.1,x,8.9%,-9.0,2.2%,-1.0,19.7%
O=C(COc1ccccc1)Nc1ccccc1C(=O)NC1CC1,-14.1,-0.7%,x,x,3.2%,6.3,2.2%[15.4 µM]
CCC(C)(C(=O)NC1CCCCC1)N(Cc1ccco1)C(=O)CC1NC(=O)NC1=O (configuration not stated),-2.8,-1.0%,8.2%,0.5,-7.3%,5.4,-23.0%
CN=C(Nc1ccccc1)SC1CC(=O)N(c2ccc(C(=O)OC)cc2)C1=O (configuration not stated),4.0,0.7%,5.1%,7.0,-13.4%,-1.0,-5.2%
O=C(Nc1ccccc1)c1cc2c(=O)c3ccccc3oc2nc1C(F)(F)F,1.8,1.8%,4.9%,3.0,14.5%,4.2,u
Cc1ccc(C(=O)N(CC(=O)NC2CCCC2)c2ccccc2C)s1,-20.7,0.7%,6.0%,-1.0,-1.0%,x,1.4%
O=C1/C(=C\c2cc(Br)cc(Br)c2O)SC(=S)N1Cc1ccccc1,4.3,1.8%,63.1µM*,u,-20.9%,-8.5,-0.6%[15.4 µM]
COc1ccc(NC(=O)CN(C)C(=O)CCNC(=O)Nc2ccccc2)cc1,-0.8,-2.8%,x,x,9.9%,8.4,2.3%
OC(CNCc1ccccc1C(F)(F)F)C(F)(F)F (configuration not stated),-5.1,1.1%,-4.6%,0.7,13.2%,x,-11.6%
CCN(CC)S(=O)(=O)c1cccc(-c2nnc(SC(C)C(N)=O)n2CCc2ccccc2)c1 (configuration not stated),0.0,u,-0.2%,-5.9,-5.9%,-3.6,10.7%
COc1ccccc1N1CCN(C(=O)c2nn(C)c3c2CS(=O)(=O)c2ccccc2-3)CC1,7.4,0.0%&0.4%,6.1%,x,11.1%,2.2,-16.5%
COc1cc(NC(=O)c2cnc(N)s2)cc(C(=O)Nc2cccc(C(F)(F)F)c2)c1,u,-8.1%&-2.9%,4.4%,0.4,-4.9%,-5.1&-0.6,-44.9%&-10.7%[inhibitor]
CS(=O)(=O)NN1C(=O)c2ccccc2NC1c1cc2ccccc2nc1Cl (configuration not stated),u,0.5%,7.1%,6.1,1.0%,0.9,37.4%

# Structures listed above that bear a hit mark in Sfp inh.
SMILES | Sfp inh | Menin MLL FP FL | gsp antagonist | CtBP-E1A blk | gsp agonist
O=C1/C(=C\c2cc(Br)cc(Br)c2O)SC(=S)N1Cc1ccccc1 | 63.1µM* | u | -20.9% | -8.5 | -0.6%[15.4 µM]

# Following part.
SMILES,TRPV1 PAM,ClpP mod,Sfp inh,Menin MLL FP FL,gsp antagonist,CtBP-E1A blk,gsp agonist
CCC1CCCCN1CCCNC(=O)CNC(=O)Cn1ccc2ccccc2c1=O (configuration not stated),9.8,u,3.4%,0.2,0.3%,2.9,4.9%
Cn1c(CNC(=O)C(Cc2ccccc2)NC(=O)c2cccc(F)c2)cc(=O)n(C)c1=O (configuration not stated),-34.9,0.0%,11.2%,1.8,8.8%,-9.8,9.4%
CCOc1cc(C2C(C(=O)N3CCOCC3)=C(C)NC3=C2C(=O)CCC3)ccc1O (configuration not stated),5.3,-6.9%,7.4%,-1.4,2.4%,8.6,-4.7%
CCC(CC)NC(=O)CSc1nnc(-c2c[nH]c3ccccc23)o1,1.6,x,15.5%,3.3,-3.3%,1.4,-23.1%
COc1ccc(C2=Nc3ccc(Br)cc3C(c3ccccc3)N2CC(=O)NN)cc1 (configuration not stated),-8.5,3.6%,-7.8%,1.3,10.6%,-8.7,-58.7%[inhibitor]
Cc1c(N2C(=O)/C(=C\c3cccc4ccccc34)SC2=S)c(=O)n(-c2ccccc2)n1C,9.8,-2.2%,1.7%,6.2,u,-4.1,-20.1%
Cc1ccc(C(=O)OCc2nnc(-c3ccccc3)o2)s1,0.1,x,x,x,1.3%,11.9,2.3%[15.4 µM]
COc1ccc(CN(C)CC(O)COC(c2ccccc2)c2ccccc2)c(OC)c1OC (configuration not stated),-3.7,x,-4.1%,-0.2,-3.1%,-6.4,-11.2%[15.4 µM]
Cc1ccc(N2C(N)=C(C#N)C(c3cccnc3)C3=C2CC(C)(C)CC3=O)cc1 (configuration not stated),10.1,-4.9%,-4.7%,5.0,-11.3%,2.2,18.8%
CN1C(=S)NC(C)(C)CC1(C)c1ccc(O)cc1O (configuration not stated),-21.9,-4.6%,11.6%,x,11.3%,-2.1,-39.7%[inhibitor]
Cc1cc(N2CCN(C)CC2)nc2ccc(NC(=O)CCC(=O)NCCC3=CCCCC3)cc12,x,u,x,x,5.6%,2.1,-52.2%[inhibitor]
c1ccc2[nH]c(SCc3cscn3)nc2c1,-20.0,1.3%,8.2%,4.3,8.3%,-0.3,u
CC(C)CCNC(=O)NC(=O)COC(=O)/C=C/c1cccc([N+](=O)[O-])c1,8.1,0.8%,10.3%,-2.4,2.7%,4.2,1.0%[15.4 µM]
CCCCn1c(SCC(=O)NC2CCS(=O)(=O)C2)nnc1-c1ccc(OC)cc1 (configuration not stated),13.8,-4.6%,x,x,8.4%,3.1,2.6%
COc1ccccc1NC(=O)Nc1ccnn1C1CCN(C(=O)C2CCOC2)CC1 (configuration not stated),x,-0.7%,x,x,x,8.6,3.3%
O=C(COC(=O)c1cnccn1)NCc1ccccc1Cl,x,3.2%,x,x,x,-4.5,-10.1%
Cc1ccc(NC(=S)NNC(=O)c2nn(C)c(C)c2Cl)cc1,-3.3,1.8%,27.9%,5.0,-2.6%,u,-2.3%[15.4 µM]
COC(=O)C(N)Cc1ccc(Cl)cc1 (configuration not stated),-10.5,0.5%,x,-0.7,-0.3%,4.0,x
CCN(c1ccccc1)S(=O)(=O)c1nnc(NC(=O)CC(C)C)s1,-13.2,1.4%,-4.8%,1.9,0.1%,-3.9,6.0%[15.4 µM]
COc1ccc2c(CC(=O)NCc3ccc4c(c3)OCO4)coc2c1,-14.1,-4.8%,10.6%,1.9,-15.2%,-1.6,8.4%
CCOC(=O)c1c(C)nc(SCC(N)=O)c(C#N)c1-c1ccccc1,-0.2,4.5%,19.0%,3.3,-18.2%,3.2,-12.3%
C(=NN=C(NN=Cc1cccs1)NN=Cc1cccs1)c1cccs1,x,x,x,x,u,-29.1,20.9%
Cc1cc(C(=O)COc2nncc3ccccc23)c(C)n1C,-1.1,-2.1%,11.7%,1.9,4.9%,-14.9,-13.7%[15.4 µM]
Clc1ccc2c(c1)c1cc(Cl)ccc1n2CN1CCOCC1,u,-6.1%,-18.1%,3.1,-5.2%,14.4,u
COc1ccc(-c2nc(N)c(C#N)c(-c3cccnc3)c2C)cc1,2.4,2.4%,26.3%,0.9,-7.0%,x,8.2%
CCNC(=S)Nc1cccc(NC(=O)c2ccccc2O)c1,-9.6,1.2%,13.0%,2.0,1.7%,5.4,-8.9%[15.4 µM]
CCOc1cc(C(=O)Nc2ccccc2N2CCOCC2)ccc1OCC(=O)N1CCOCC1,-2.8,0.9%,x,x,-6.0%,-2.1,-5.5%
O=C(Cc1ccccc1)N/N=C/C=C/c1ccccc1[N+](=O)[O-],x,x,11.7%,1.7,-5.0%,1.9,4.4%[15.4 µM]
CCc1nnc(NS(=O)(=O)c2ccc(NC(=O)CCC(=O)O)cc2)s1,0.7,2.0%,-1.8%,-0.9,8.7%,4.9,28.8%

# Screens (PubChem BioAssay)
